# Bioassay records: PubChem BioAssay, National Center for Advancing Translational Sciences (NCATS)
# Rango dissoc inh: prevents RanGTP from dissociating the Rango-importin beta complex. Biochemical FRET Rango-importin beta, RanGTP-induced dissociation. Potency, µM (top dose mostly 46.1 µM), for the others: at the highest dose activity change, negative = inhibition. 340,000 compounds, 0.071% hits; active means falling FRET ratio curve, often poorly fitted, with flat reads before Ran was added; inconclusive means other falling curves, or compound fluorescence or quenching; inactive means flat or rising ratio curve;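 note: potency is the fitted concentration of half-maximal effect; % of control where 0% means no effect; nearly all actives have a fitted effect of over 45% in size; -100% = wells without RanGTP and RCC1; the record marks most hits as doubtful in a second field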
#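 Compounds preincubate 5 min with complex of recombinant Rango and importin beta in PBS with 1 mM DTT. Ran (0.6 uM) loaded with 2 mM GTP plus 0.2 uM RCC1 starts dissociation; FRET is recorded 45 min later.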
# GLA inh pH 4.5: blocks human alpha-galactosidase A at pH 4.5 | purified enzyme, 4-MU-alpha-Gal fluorescence, pH 4.5 | 230,000 tested, under 10 active | activity change, negative = inhibition, % at 105 µM | P06280 | AID 1467; inconclusive = small, poorly fitted or top-dose-only inhibition, or a rising curve; inactive = flat fitted curve, though single readings scatter; no compound was filed as active;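 note: 0% = full activity with enzyme and -100% = basal without enzyme; dose as in the result columns while the protocol names 77 µM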
# Target sequence (P06280 whole entry, looked up): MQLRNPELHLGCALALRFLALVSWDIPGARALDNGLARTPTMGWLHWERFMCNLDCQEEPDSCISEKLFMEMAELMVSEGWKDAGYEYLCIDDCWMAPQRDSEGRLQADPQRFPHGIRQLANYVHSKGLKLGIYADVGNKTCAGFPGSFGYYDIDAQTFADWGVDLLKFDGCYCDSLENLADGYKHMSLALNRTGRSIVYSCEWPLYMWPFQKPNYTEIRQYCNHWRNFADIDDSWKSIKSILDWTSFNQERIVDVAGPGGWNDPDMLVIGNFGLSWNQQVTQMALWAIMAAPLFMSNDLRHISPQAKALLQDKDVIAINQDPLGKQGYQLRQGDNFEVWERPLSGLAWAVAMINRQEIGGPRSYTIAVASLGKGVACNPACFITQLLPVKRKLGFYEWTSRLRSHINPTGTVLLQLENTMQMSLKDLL
# Rango complex inh: Rango-importin beta binding inhibition; Q14974; Rango CFP/YFP FRET sensor + importin beta, 45 min; Potency, µM (highest dose often 92.2 µM), inactives show top-dose inhibition of complex formation; 340,000 compounds, 0.031% hits; AID 540263; active = rising FRET ratio curve, often small or poorly fitted; inconclusive = mostly compound fluorescence or quenching in the first reads; inactive = flat curves in all reads;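 note: potency is the fitted concentration of half-maximal effect; 0% = DMSO wells and 100% = buffer wells lacking importin beta; nearly all actives have a fitted effect of over 15% in size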
#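 FRET biosensor (snurportin 1 IBB flanked by EYFP and cerulean), 50 nM, with compound 5 min, then 0.125 microM importin beta in PBS, 1 mM DTT, 0.02% Tween-20, 0.1% BSA. CFP/YFP ratio read after 45 min at room temperature; pre-read flags interference.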
# miR-21 FLuc: miR-21 reporter, rising signal | HeLa miR-21 FLuc reporter, luciferase, 48 h | 340,000 tested, under 10 active | Potency, µM (highest dose often 38.3 µM), without a hit: top-dose reporter change, positive = more light; active = well fitted rising curve with a large enough effect; inconclusive = small, poorly fitted or top-dose-only effect; inactive = no such curve, though single readings can be large or run the other way;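 note: % of control where 0% means no effect; miR-21 action dims this reporter so a rising signal means less miR-21 action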
#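 HeLa cells endogenously expressing miR-21, stably carrying CMV-driven firefly luciferase with a downstream miR-21 binding site, 2000 cells/well. Titrations up to approximately 40 uM, 48 hours; luciferase luminescence read.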
# The depositor's hits bear a star; ? = inconclusive; / = not tested or not shown. Some of the compounds tested (hit frequency here may not be typical).
Rango dissoc inh	Rango complex inh	GLA inh pH 4.5	miR-21 FLuc	structure
-10.2%	-2.0%	-3.2	28.7%	CC(C)C[C@H](NC(=O)c1nc[nH]c1C(=O)N1CCN(C(=O)OC(C)(C)C)CC1)C(=O)OC(C)(C)C
-17.2%	?	/	-3.0%	Cc1nc2c(sc(=S)n2Cc2ccco2)c(=O)n1CC(=O)Nc1cc(F)ccc1F
1.8%	-1.0%	-1.1	8.2%	N#CN(Cc1ccccc1)Cc1ccccc1
-0.1%	-1.5%	3.4	-1.6%	COc1ccc(N(Cc2cc3cc(OC)ccc3[nH]c2=O)C(=O)c2cccnc2)cc1
1.5%	-2.5%	-5.0	3.6%	O=C(CN1CCN(c2ccccn2)CC1)Nc1ccc(Cl)c(C(F)(F)F)c1
-0.3%	3.1%	4.3	-4.2%	O=C(/C=C/c1ccccc1)NCC(=O)N/N=C/c1ccccc1[N+](=O)[O-]
-6.1%	-0.5%	0.8	-5.3%	CCOC(=O)c1ccc(N2C(=O)c3n[nH]c(C)c3C2c2cccnc2)cc1 (stereo unspecified)
-2.6%	-1.7%	6.4	3.8%	O=C(O)CCc1ccc(-c2cccs2)n1NC(=O)c1cccs1
-4.8%	-1.9%	1.1	-0.3%	COc1cccc(C(=O)NCc2nnc(SCC(=O)Nc3nccs3)n2-c2cccc(C)c2)c1
16.3%	-2.6%	/	1.9%	CSCCC(NS(=O)(=O)c1ccccc1F)C(=O)N1CCCCCC1 (stereo unspecified)
0.3%	-1.4%	/	/	Cc1ccc(C)c(NC(=O)C(OC(=O)c2ccc(CO)cc2)c2ccccc2)c1 (stereo unspecified)
-11.2%	1.5%	-4.6	11.6%	CCN(CCNC(=O)c1ccc2nc(-c3ccccc3NC(C)=O)c(=O)[nH]c2c1)c1ccccc1
5.8%	0.6%	/	1.3%	CCC[C@@H](OS(N)(=O)=O)[C@@H](Cc1ccccc1)C(=O)OCC
1.2%	0.8%	/	-9.0%	O=C(NCCCn1ccnc1)c1cc2c(s1)CCCC2
2.1%	?	-3.8	-21.2%	COc1ccc2nc(SCC(=O)N3CCCCCC3)c(C#N)cc2c1
-20.1%	-0.1%	/	-2.8%	COc1ccc(NS(=O)(=O)NC(=O)c2cn(C)c3ccccc23)cc1
15.5%	-0.2%	-7.4	-3.1%	CC(C)CC(=O)Nc1ccccc1-c1nnn(CC(=O)N2CCc3ccccc3C2)n1
-19.4%	-0.6%	/	/	COc1ccc(S(=O)(=O)N(C)C2(C)CCS(=O)(=O)C2)cc1OC (stereo unspecified)
4.4%	5.7%	/	0.2%	Fc1ccc(CNCC2CCCO2)cc1 (stereo unspecified)
4.8%	4.5%	-0.2	-8.7%	C=CCC(=O)NC(C)c1cnn(-c2ccccc2C)c1C (stereo unspecified)
-10.6%	2.4%	/	/	COc1ccc(CN(C)CC(=O)Nc2cccc(S(=O)(=O)N3CCCC3)c2)cc1F
1.1%	-0.3%	/	-0.3%	O=C(C1CCCC1)N1CCCC(Nc2ccccc2)C1 (stereo unspecified)
-19.0%	0.4%	6.6	0.1%	CCC(C)[C@H](NC(=O)NCCCc1ccccc1)C(=O)OC (stereo partly specified)
-1.0%	?	/	1.8%	COc1cccc(C(C(=O)NC2CCCCC2)N(C(=O)c2csnn2)C2CC2)c1 (stereo unspecified)
?	?	/	2.7%	CC(=O)c1sc2nc(SCC(=O)NCCc3ccccc3)[nH]c(=O)c2c1C
-15.7%	-2.7%	8.2	-1.2%	Cc1cc2nnc(SCC(=O)N3CCN(c4ccccc4)CC3)n2c(N)n1
10.8%	0.0%	3.6	-5.1%	CN1C(=O)NC2C1N(S(C)(=O)=O)CCN2S(C)(=O)=O (stereo unspecified)
1.6%	?	0.8	12.5%	CCCN(Cc1ccccc1)C(=S)Nc1ccc(SC(F)F)cc1
-10.4%	1.7%	-7.8	0.7%	CCOc1cc(C2C(C(=O)c3ccc(C)cc3)=C(C(=O)OC)Nc3nnnn32)ccc1O (stereo unspecified)
-6.6%	-0.2%	8.3	4.0%	CC12CCC(c3nnc(SCC(=O)Nc4cccc5ccccc45)nc31)C2(C)C (stereo unspecified)
6.3%	-2.2%	-5.7	16.4%	CC(Nc1nc(N2CCNCC2)nc2ccccc12)c1ccccc1 (stereo unspecified)
?	1.4%	-3.3	-33.1%	Nc1cc(N)nc(SCc2cc(=O)oc3cc4c(cc23)CCC4)n1
21.8%	-1.3%	4.5	3.0%	CN(C)S(=O)(=O)N1CCCC(C(=O)c2ccc(-c3ccccc3)cc2)C1 (stereo unspecified)
-17.1%	-4.2%	-14.7	-8.8%	CC(=O)c1cccc(NC(=O)C(OC(=O)c2ccccc2NS(=O)(=O)c2cccs2)c2ccccc2)c1 (stereo unspecified)
-12.2%	-0.8%	7.3	-5.4%	O=C(Nc1ccccc1Cl)c1cccc(NC(=O)C2C3CC4OC(=O)C2C4C3)c1 (stereo unspecified)
-6.0%	0.3%	0.0	-4.0%	Cc1ccn2cc(CC(=O)O)nc2c1
28.1%	-4.3%	11.1	-2.5%	Cc1ncc(CN2CCN(Cc3ccccc3)C(CCO)C2)s1 (stereo unspecified)
0.2%	-0.3%	-6.6	0.1%	Cc1ccc(C)c(C(=O)NCc2ccncc2)c1
5.1%	6.8%	/	/	CC(=O)c1cccc(OCC(=O)NC2CCCCCC2)c1
-17.4%	0.9%	/	3.1%	COc1ccc(-c2cc(C(=O)Nc3cccnc3)c3ccccc3n2)cc1OC
-13.5%	0.7%	4.8	0.1%	CC(C)(C)N1CC(c2nc3ccccc3n2Cc2ccccc2)CC1=O (stereo unspecified)
2.2%	0.1%	6.6	16.6%	COc1cc(C(=O)N2CCN(c3ccc(C)cc3C)CC2)cc(OC)c1OC
-6.6%	-0.9%	-0.2	-0.9%	COCCN1CCC(CNCc2cn[nH]c2-c2ccc(C)c(C)c2)C1 (stereo unspecified)
13.0%	-2.8%	1.0	-8.3%	COCCNC(=O)CC(NS(=O)(=O)c1ccc(NC(C)=O)cc1)C(C)C (stereo unspecified)
-0.6%	2.9%	6.5	5.3%	COc1ccc([N+](=O)[O-])cc1NC(=O)COC(=O)C1CC1
12.3%	-10.9%	4.5	-14.2%	Cc1ccc(NC(=S)N(CCCN2CCOCC2)Cc2ccco2)cc1C
20.3%	-3.9%	/	13.9%	COCc1cc(C)n(CC(=O)Nc2ccc(N3CCOCC3)c(Cl)c2)c(=O)c1C#N
22.4%	2.9%	/	/	CC(=O)Nc1cccc(NC(=O)C(=O)NCC(c2ccco2)N2CCc3ccccc3C2)c1 (stereo unspecified)
0.0%	0.4%	3.5	-6.0%	COc1ccc(-c2nnc(SCC(=O)N3c4ccccc4Sc4ccccc43)o2)cc1
0.2%	0.6%	8.5	-0.6%	C=CCn1c(=O)c2ccccc2n2c(SCC(N)=O)nnc12

# Next entries:
Rango dissoc inh	Rango complex inh	GLA inh pH 4.5	miR-21 FLuc	structure
-7.6%	-3.4%	-0.9	-13.0%	COC(=O)c1ccc(CSc2nnnn2-c2ccc(C)cc2C)o1
10.4%	6.1%	6.7	-2.9%	CNS(=O)(=O)c1cnccc1N1CCN(C)CC1
-8.7%	1.8%	/	/	Cc1ccc(OCCC(=O)Nc2ccc3c(c2)OCO3)cc1
-15.4%	-0.9%	-8.3	-2.0%	COc1ccc(NS(=O)(=O)c2cccc(C(=O)N/N=C/c3ccc(O)cc3)c2)cc1
?	?	11.4	-2.2%	Cc1cccn2c(=O)c(/C=C(\C#N)C(=O)NC3CCS(=O)(=O)C3)c(N3CCC(C(N)=O)CC3)nc12 (stereo unspecified)
0.5%	-1.0%	-3.3	-0.5%	COc1ccc(/C=N/NC(=O)C(=O)NCc2cccnc2)cc1OC
-7.2%	-1.9%	-10.3	-14.2%	O=C(NCCn1cc(SCc2ccccc2F)c2ccccc21)c1c(F)cccc1F
-18.2%	?	-4.8	3.2%	COc1ccc(OC)c(C(c2nnnn2C2CCCC2)N2CCc3ccccc3C2)c1 (stereo unspecified)
3.5%	-5.9%	/	12.0%	COc1ccc(NC(=O)c2cccc(S(=O)(=O)N3CCCCCC3)c2)cc1
4.9%	3.4%	-0.6	-7.0%	CCCC(=O)Nc1ccc(C(=O)NN=C(C2CC2)C2CC2)cc1
-1.4%	-2.5%	-10.4	-1.9%	CCCn1c(SCC(=O)N2c3ccccc3Sc3ccccc32)nc2c1c(=O)n(C)c(=O)n2C
11.0%	-0.9%	4.3	4.2%	CCN(CC)C(=O)c1scc2c1OCCO2
0.8%	-1.9%	1.1	-14.1%	CCn1cc(C2=NOC(C(=O)Nc3cc(OC)c(Cl)cc3OC)C2)c(C)n1 (stereo unspecified)
0.0%	-0.8%	-0.7	-2.1%	Cc1nc(NC(=O)C2CC2)sc1C(=O)N1CCCCC1
-20.1%	-0.1%	6.1	-4.4%	Cc1oncc1C(=S)Nc1ccccc1
?	?	/	/	COc1ccc(C2CC(c3ccncc3)=NN2c2ccc(S(N)(=O)=O)cc2)cc1 (stereo unspecified)
-8.1%	-5.5%	-2.9	-60.0%	COc1cc(NC(=O)c2ccccc2Cl)ccc1NC(=O)c1cccs1
23.0%	-0.3%	9.1	-32.9%	Cn1c(N)c(C(=O)c2ccc(Oc3ccccc3)cc2)c(=O)n(C)c1=O
-4.1%	-4.1%	3.8	-2.1%	CC1=NN(c2ccc(C)cc2C)C(=O)C1C(c1cccc(O)c1)C1C(=O)N(c2ccc(C)cc2C)N=C1C (stereo unspecified)
-0.2%	-2.0%	/	/	C[C@]12c3[nH]c4ccccc4c3CCN1C(=O)C(CC(=O)NCCC1=CCCCC1)C[C@@H]2C(=O)N1CCCCC1 (stereo partly specified)
5.8%	5.9%	/	/	Cc1ccc(S(=O)(=O)N2[C@@H](c3ccc(Cl)cc3)C(C(=O)O)=CC[C@H]2c2ccc3c(c2)OCO3)cc1
12.7%	-1.4%	/	-60.6%	Cc1ccccc1NC(=O)c1ccc2c(c1)N(C)CCS2
-9.4%	1.1%	-0.2	0.1%	CCOC(=O)N1CCN(C(=O)c2ccc(OC(C)=O)cc2)CC1
-1.3%	2.1%	/	/	COc1ccc(C(=O)CC(CC(=O)c2ccc(OC)cc2)C(=O)O)cc1
-7.1%	5.9%	-6.9	-1.6%	COC(=O)C1=C(C)N(c2ccc(F)c(Cl)c2)C(=O)C1
18.4%	-2.5%	/	/	Cc1ccc(S(=O)(=O)/N=C2/NC(=O)/C(=C\c3ccccc3)S2)cc1
12.8%	-0.2%	-1.5	2.1%	N#CCCn1nc(-c2ccccc2)cc1Nc1ccccc1NC(=O)c1cccs1
?	?	/	-14.2%	CC(C)c1ccc(N=Cc2c(O)c3ccccc3oc2=O)cc1
-0.3%	-0.2%	5.7	-25.1%	Cc1ccc(-c2noc(C3CCCN(C(=O)C4CCCCC4)C3)n2)o1 (stereo unspecified)
-3.2%	-1.4%	-8.9	5.2%	CC1=Nc2ccc(C)cc2N(Cc2ccccc2)C(=O)C1
12.1%	0.0%	/	/	CN(C)CCN(Cc1ccco1)c1ccccn1
-12.3%	1.4%	2.4	-0.5%	CCN(CC)CCN=CC1=C(O)CNC1=O
28.1%	2.1%	5.0	0.0%	CC1(C)CC(=O)/C(=C(\O)CCCN2C(=O)c3ccccc3C2=O)C(=NCC(=O)O)C1
-14.8%	1.3%	7.0	-10.4%	COC(=O)CN(c1ccc(F)cc1)S(=O)(=O)c1ccccc1
8.6%	1.5%	1.6	-16.8%	COc1ccc(NC(=O)C2CCCN2S(=O)(=O)c2cccc3cccnc23)c(OC)c1 (stereo unspecified)
0.4%	0.1%	/	/	Cn1c(CC(=O)NNC(=O)c2ccc(F)cc2Cl)nc2ccccc21
16.3%	0.7%	8.6	-16.9%	Cc1cccc(C)c1-n1c(C)cc(/C=N/NC(=O)CSc2ncccn2)c1C
